# UUG fidelity – modulators of start codon recognition fidelity in yeast | S. cerevisiae UUG-firefly luciferase reporter, luminescence/redox ratio | activity score, % at 18.7 µM | 350,000 tested, 0.13% active;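 active means replicate mean at a twofold rise or more, about +100% in these data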;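 further: firefly luciferase made from a UUG start codon reports start codon fidelity; reporter light over untreated wells divided by growth signal over untreated wells; some hits fall short of that in this replicate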
# An asterisk follows results filed as active. These rows are one share of the data; the hit share may differ from the screen's.
C[C@@H]1CN([C@@H](C)CO)C(=O)Cc2cc(N(C)C)ccc2O[C@H]1CN(C)Cc1ccc(-c2ccccc2)cc1
  UUG fidelity: 1.7
C[C@@H]1CN([C@@H](C)CO)C(=O)CCCn2nncc2CO[C@H]1CN(C)C(=O)Nc1ccc(C(C)(C)C)cc1
  UUG fidelity: -9.7
C[C@@H]1CN([C@@H](C)CO)C(=O)CCCn2nncc2CO[C@H]1CN(C)C(=O)Nc1cccc(C(F)(F)F)c1
  UUG fidelity: 13.8
O=C(Nc1ccccc1F)N1CCCCN2[C@@H](CO)[C@@H](c3ccc(C4=CCCC4)cc3)[C@@H]2C1
  UUG fidelity: 6.7
CCCC#Cc1ccc([C@H]2[C@@H](CO)N3CCCCN(Cc4cncnc4)C[C@H]23)cc1
  UUG fidelity: -8.4
O=C(Nc1ccc(F)cc1)N1CCCCN2[C@H](CO)[C@H](c3ccc(C#Cc4ccccc4)cc3)[C@@H]2C1
  UUG fidelity: -2.6
CO[C@@H]1CN(C)C(=O)c2ccc(NS(=O)(=O)c3cn(C)cn3)cc2OC[C@@H](C)N(Cc2cccc(F)c2)C[C@@H]1C
  UUG fidelity: 8.1
O=C(CN1CCOCC1)N1CCCCN2[C@H](C1)[C@H](c1ccc(-c3ccccc3)cc1)[C@@H]2CO
  UUG fidelity: 3.6
CO[C@H]1CN(C)C(=O)c2cc(NC(C)=O)ccc2OC[C@H](C)N(C(=O)c2ccccc2F)C[C@@H]1C
  UUG fidelity: 1.0
CC=Cc1ccc2n(c1=O)C[C@H]1[C@H](CO)[C@@H](C(=O)NC3Cc4ccccc4C3)N(CC3CC3)[C@@H]21 (mixture of isomers)
  UUG fidelity: 4.9
CC(C)NC(=O)N(C)C[C@@H]1Oc2c(NC(=O)Nc3ccccc3)cccc2C(=O)N([C@@H](C)CO)C[C@H]1C
  UUG fidelity: 8.4
Cc1ccc(S(=O)(=O)N(C)C[C@@H]2Oc3ccc(NC(=O)Cc4ccccc4)cc3C(=O)N([C@H](C)CO)C[C@@H]2C)cc1
  UUG fidelity: -6.6
CCC(=O)N1[C@@H](CO)[C@@H](c2ccc(-c3ccccc3)cc2)[C@@H]1CN(CC)C(C)=O
  UUG fidelity: -7.8
C[C@@H]1CN([C@@H](C)CO)C(=O)c2cccc(NS(C)(=O)=O)c2O[C@H]1CN(C)C(=O)NC1CCCCC1
  UUG fidelity: 11.6
CC(C)NC(=O)N1C[C@H]2[C@@H](c3ccccc31)[C@@H](CO)N2C(=O)C1CCCC1
  UUG fidelity: -9.8
CN1C(=O)c2cc(NC(=O)Nc3ccc(F)cc3)ccc2OC[C@@H]2O[C@@H](CC(=O)NC3CCC3)CC[C@H]21
  UUG fidelity: 10.2
O=C(O)[C@@H]1[C@@H](CO)[C@@H]2Cn3c(ccc(-c4ccccc4)c3=O)[C@@H]2N1CCc1ccccc1
  UUG fidelity: 13.1
O=C(c1cccc(F)c1)N1C[C@@H]2[C@H](c3ccccc31)[C@H](CO)N2C(=O)C1CCOCC1
  UUG fidelity: -4.4
CCC(=O)N1[C@H](CN(CC)C(=O)NC2CCCC2)[C@@H](c2ccccc2)[C@@H]1CO
  UUG fidelity: -4.9
CCCNC(=O)C[C@H]1CC[C@@H]2[C@H](COC[C@@H](O)CN2C(=O)C2CCOCC2)O1
  UUG fidelity: -11.8
C[C@@H]1CN([C@@H](C)CO)C(=O)c2cccc(NS(=O)(=O)c3cn(C)cn3)c2O[C@H]1CN(C)C(=O)Nc1ccc2c(c1)OCO2
  UUG fidelity: -3.4
CO[C@@H]1CN(C)C(=O)c2cc(NC(=O)Nc3c(C)noc3C)ccc2OC[C@H](C)N(CC2CC2)C[C@H]1C
  UUG fidelity: -5.2
CNC(=O)C[C@@H]1CC[C@H]2[C@@H](COC[C@@H](O)CN2C(=O)c2ccccn2)O1
  UUG fidelity: -11.2
O=C(Nc1ccc(Cl)cc1)N1C[C@@H]2[C@H](c3ccccc31)[C@@H](CO)N2C(=O)c1cccnc1
  UUG fidelity: -17.0
CN(C)C(=O)c1cccc(-c2ccc3c(c2)[C@H]2[C@H](CCN2C(=O)c2ccccc2F)[C@@H](CO)N3)c1
  UUG fidelity: -2.0

C[C@@H]1CN([C@@H](C)CO)C(=O)Cc2cc(NS(C)(=O)=O)ccc2O[C@@H]1CN(C)Cc1ccc(Oc2ccccc2)cc1
  UUG fidelity: 9.8
C[C@H]1CN([C@@H](C)CO)C(=O)c2cc(NC(=O)c3ccncc3)ccc2O[C@@H]1CN(C)S(=O)(=O)c1ccc(Cl)cc1
  UUG fidelity: 3.0
CO[C@@H]1CN(C)C(=O)c2cc(NC(=O)c3ccccc3)ccc2OC[C@H](C)N(C(C)=O)C[C@H]1C
  UUG fidelity: -12.1
CO[C@@H]1CN(C)C(=O)c2cc(NC(=O)C3CC3)ccc2OC[C@H](C)N(CC2CCOCC2)C[C@H]1C
  UUG fidelity: -10.4
CO[C@H]1CN(C)C(=O)c2cc(NC(=O)NC3CCCCC3)ccc2OC[C@@H](C)N(C(C)=O)C[C@@H]1C
  UUG fidelity: 2.7
C[C@H]1CN([C@@H](C)CO)C(=O)c2cc(NC(=O)C3CCCCC3)ccc2O[C@@H]1CN(C)S(=O)(=O)c1ccc(F)cc1
  UUG fidelity: 1.6
O=C(C[C@@H]1CC[C@@H]2[C@H](COC[C@H](O)CN2S(=O)(=O)c2ccc(Oc3ccccc3)cc2)O1)NCCN1CCCCC1
  UUG fidelity: 1.5
C/C=C/c1ccc([C@H]2[C@@H](CO)N(C(=O)C3CC3)[C@H]2CN(C)C(=O)C2CC2)cc1
  UUG fidelity: 3.2
CO[C@@H]1CN(C)C(=O)c2cc(NS(=O)(=O)CC(F)(F)F)ccc2OC[C@@H](C)N(Cc2ccccn2)C[C@@H]1C
  UUG fidelity: -20.7
CCCNC(=O)N1C[C@H]2[C@@H](c3ccccc31)[C@@H](CO)N2Cc1ccc(F)cc1
  UUG fidelity: -14.8
C[C@H]1CN([C@@H](C)CO)C(=O)c2cccc(NS(=O)(=O)c3ccccc3)c2O[C@H]1CN(C)Cc1ccccc1
  UUG fidelity: -0.6
CO[C@H]1CN(C)C(=O)c2ccc(NC(=O)Nc3ccc(Cl)cc3)cc2OC[C@@H](C)N(C(=O)Nc2c(C)noc2C)C[C@H]1C
  UUG fidelity: -3.3
C[C@@H]1CN([C@@H](C)CO)C(=O)CCCn2nncc2CO[C@@H]1CN(C)C(=O)Nc1ccc2c(c1)OCCO2
  UUG fidelity: -25.4
C[C@H](CO)N1C[C@H](C)[C@@H](CN(C)Cc2ccncc2)Oc2ccc(NS(=O)(=O)c3ccc(Cl)cc3)cc2CC1=O
  UUG fidelity: 4.5
Cc1ccc(S(=O)(=O)Nc2ccc3c(c2)C(=O)N([C@H](C)CO)C[C@@H](C)[C@@H](CN(C)C(=O)Nc2ccc(F)cc2)O3)cc1
  UUG fidelity: 6.5
C[C@H](CO)N1C[C@H](C)[C@@H](CN(C)S(=O)(=O)c2ccc(Cl)cc2)Oc2ccc(NC(=O)Cc3ccccc3)cc2CC1=O
  UUG fidelity: -5.5
C[C@@H]1CN([C@H](C)CO)C(=O)c2cc(NC(=O)Nc3ccc4c(c3)OCO4)ccc2O[C@H]1CN(C)Cc1ccc(C(=O)O)cc1
  UUG fidelity: 3.1
CC(C)NC(=O)N(C)C[C@H]1Oc2c(NC(=O)c3ccncc3)cccc2C(=O)N([C@H](C)CO)C[C@H]1C
  UUG fidelity: -14.0
Cc1ccc(S(=O)(=O)Nc2ccc3c(c2)CC(=O)N([C@@H](C)CO)C[C@@H](C)[C@@H](CN(C)C(=O)Nc2ccc(F)cc2)O3)cc1
  UUG fidelity: 9.5
CCC(=O)NC[C@@H]1[C@H](c2ccc(C3=CCCC3)cc2)[C@H](CO)N1C(C)=O
  UUG fidelity: 27.5
O=C(C[C@H]1CC[C@H]2[C@@H](COC[C@@H](O)CN2Cc2ccccc2)O1)N[C@H]1CCN(Cc2ccccc2)C1
  UUG fidelity: -3.9
O=C(NC[C@H]1N[C@H](CO)[C@@H]1c1ccccc1)C1CCC1
  UUG fidelity: -5.1
C[C@@H]1CN([C@H](C)CO)C(=O)c2cc(NC(=O)CCC(F)(F)F)ccc2O[C@H]1CN(C)C(=O)Nc1ccc(F)cc1
  UUG fidelity: 24.1
C[C@@H]1CN([C@H](C)CO)C(=O)c2cc(NC(=O)CCN3CCOCC3)ccc2O[C@@H]1CN(C)C
  UUG fidelity: -11.5
CO[C@@H]1CN(C)C(=O)c2cc(NS(=O)(=O)CC(F)(F)F)ccc2OC[C@H](C)N(Cc2cccnc2)C[C@H]1C
  UUG fidelity: -8.1

# Other structures.
Compound | UUG fidelity
CC(C)NC[C@H]1[C@@H](c2ccc(C3=CCCCC3)cc2)[C@@H](CO)N1C(=O)NC(C)C | -4.0
O=S(=O)(c1cccs1)N1CCCCN2[C@H](CO)[C@H](c3ccc(C4=CCCCC4)cc3)[C@@H]2C1 | 1.4
C[C@@H]1CN([C@H](C)CO)C(=O)c2cccc(NC(=O)c3ccc(-c4nccs4)cc3)c2O[C@@H]1CN(C)Cc1ccc(Oc2ccccc2)cc1 | 22.1
COCC(=O)Nc1ccc2c(c1)OC[C@H](C)N(Cc1ccccc1F)C[C@@H](C)[C@@H](OC)CN(C)C2=O | -7.1
CCNC(=O)C[C@H]1CC[C@H]2[C@@H](COC[C@@H](O)CN2C(=O)Nc2c(C)noc2C)O1 | -3.1
C[C@H](CO)N1C[C@H](C)[C@H](CN(C)C(=O)NC2CCCCC2)Oc2ccc(NS(=O)(=O)c3ccc(Cl)cc3)cc2C1=O | -0.2
Cc1ccc(S(=O)(=O)N2CC[C@H]3[C@H](CO)Nc4ccc(C#Cc5ccc(F)cc5)cc4[C@H]32)cc1 | -1.5
O=C(c1ccccc1)N1C[C@@H]2[C@H](c3ccccc31)[C@@H](CO)N2C(=O)c1ccccn1 | -0.6
CCN(C[C@H]1[C@H](c2ccccc2)[C@@H](CO)N1C(C)=O)C(=O)c1ccccn1 | 2.6
C[C@@H]1CN([C@@H](C)CO)C(=O)c2cc(NC(=O)Nc3ccc4c(c3)OCO4)ccc2O[C@@H]1CN(C)C(=O)Nc1cccc2ccccc12 | -11.4
COc1ccc(S(=O)(=O)N(C)C[C@H]2Oc3ccc(NS(=O)(=O)c4ccc(Cl)cc4)cc3C(=O)N([C@@H](C)CO)C[C@@H]2C)cc1 | -7.8
C[C@H]1CN([C@@H](C)CO)C(=O)c2cccc(NC(=O)Nc3ccc(C(F)(F)F)cc3)c2O[C@H]1CN(C)S(=O)(=O)c1cccs1 | -15.0
CCCNC(=O)N1CC[C@@H]2[C@@H](CO)N(C)c3ccc(-c4ccc(F)cc4)cc3[C@@H]21 | 6.9
COCC(=O)N1C[C@@H](C)[C@@H](OC)CN(C)C(=O)c2ccc(NC(=O)NC(C)C)cc2OC[C@@H]1C | 14.1
COc1ccc(S(=O)(=O)N2CCCCN3[C@H](CO)[C@@H](c4ccc(C#CC5CC5)cc4)[C@H]3C2)cc1 | 11.4
COc1ccc(C#Cc2ccc([C@H]3[C@@H](CO)N4CCCCN(S(=O)(=O)c5cn(C)cn5)C[C@@H]34)cc2)cc1 | 7.9
CCC(=O)Nc1ccc2c(c1)C(=O)N(C)C[C@@H](OC)[C@@H](C)CN(Cc1ccccc1F)[C@H](C)CO2 | -11.9
COc1ccc(CN(C)C[C@H]2Oc3c(NC(=O)NC4CCCCC4)cccc3C(=O)N([C@@H](C)CO)C[C@@H]2C)cc1 | 0.1
C[C@@H]1CN([C@@H](C)CO)C(=O)c2cc(NC(=O)Cc3ccccc3)ccc2O[C@@H]1CN(C)Cc1ccc(Cl)c(Cl)c1 | 18.1
C[C@@H]1CN([C@@H](C)CO)C(=O)c2ccccc2-c2ccccc2CO[C@@H]1CN(C)Cc1ccc(O)cc1 | -14.5
CC(=O)N1[C@H](CN(C(=O)c2ccccc2)C(C)C)[C@H](c2ccccc2)[C@@H]1CO | 7.0
C[C@@H]1CN([C@H](C)CO)C(=O)Cc2cc(NC(=O)Nc3cccc4ccccc34)ccc2O[C@H]1CN(C)Cc1ccc2c(c1)OCO2 | 11.7
Cc1ccc(-c2ccc([C@@H]3[C@H](CO)N4CCCCN(C)C[C@@H]34)cc2)cc1 | -8.0
O=C(C[C@H]1C[C@H]2c3cc(NC(=O)c4cccnc4)ccc3O[C@H]2[C@H](CO)O1)NCc1ccncc1 | -13.3
COCC(=O)N1C[C@H]2[C@@H](c3ccccc31)[C@H](CO)N2Cc1cc(F)ccc1F | -7.0
CCC(=O)Nc1ccc2c(c1)C(=O)N(C)C[C@H](OC)[C@H](C)CN(Cc1ccccc1F)[C@@H](C)CO2 | -9.2
O=C(c1ccccc1F)N1CC[C@@H]2[C@@H](CO)Nc3ccc(C#Cc4ccccc4F)cc3[C@@H]21 | 2.6
CC(C)NC(=O)N1CCCCN2[C@@H](CO)[C@H](c3ccc(Br)cc3)[C@@H]2C1 | 28.9

# An excerpt from above in order of the UUG fidelity value, high to low.
Compound | UUG fidelity
C[C@@H]1CN([C@@H](C)CO)C(=O)c2cc(NC(=O)Cc3ccccc3)ccc2O[C@@H]1CN(C)Cc1ccc(Cl)c(Cl)c1 | 18.1
O=C(c1ccccc1F)N1CC[C@@H]2[C@@H](CO)Nc3ccc(C#Cc4ccccc4F)cc3[C@@H]21 | 2.6
COc1ccc(CN(C)C[C@H]2Oc3c(NC(=O)NC4CCCCC4)cccc3C(=O)N([C@@H](C)CO)C[C@@H]2C)cc1 | 0.1
O=C(C[C@H]1C[C@H]2c3cc(NC(=O)c4cccnc4)ccc3O[C@H]2[C@H](CO)O1)NCc1ccncc1 | -13.3

# Two of the compounds above, with values ahead of the structure.
UUG fidelity	structure
-11.5	C[C@@H]1CN([C@H](C)CO)C(=O)c2cc(NC(=O)CCN3CCOCC3)ccc2O[C@@H]1CN(C)C
-8.1	CO[C@@H]1CN(C)C(=O)c2cc(NS(=O)(=O)CC(F)(F)F)ccc2OC[C@H](C)N(Cc2cccnc2)C[C@H]1C

# Individual results from above.
# Result of `COCC(=O)N1C[C@H]2[C@@H](c3ccccc31)[C@H](CO)N2Cc1cc(F)ccc1F` in UUG fidelity: -7.0
# Result of `CO[C@H]1CN(C)C(=O)c2cc(NC(=O)NC3CCCCC3)ccc2OC[C@@H](C)N(C(C)=O)C[C@@H]1C` in UUG fidelity: 2.7
# Result of `C[C@@H]1CN([C@@H](C)CO)C(=O)CCCn2nncc2CO[C@H]1CN(C)C(=O)Nc1cccc(C(F)(F)F)c1` in UUG fidelity: 13.8

# Screens as filed in PubChem BioAssay.
